Compound activity: PubChem, Fisher Drug Discovery Resource Center
NPYLR7 agonist = activates Aedes aegypti NPYLR7 receptor; AID 1259423; activation, % at 10 µM; hit rate 0.15% among 270,000; HEK293T NPYLR7/Galpha15, GCaMP6s calcium fluorescence; in the data active means activation above about 40%;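 further: 0% = vehicle and 100% = reference agonist at the receptor; some compounds past the cut are filed as inactive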
NPYLR7 agonist max-min = also measured in NPYLR7 agonist; calls as there; activation, %; measured here: Max-Min RFU normalised activation; some inactives read as strong as hits;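 span of the calcium signal over five minutes; 0% = vehicle and 100% = native peptide agonist; compound fluorescence can raise it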
An asterisk follows results filed as active; & = joins results of further samples. This is a subset, so the mix of outcomes need not match the whole.

SMILES	NPYLR7 agonist	NPYLR7 agonist max-min
C=CCc1cccc(/C=N\NC(=O)CN2CCN(Cc3ccccc3)CC2)c1O	-13	-20
Cn1cc(CNC(=O)Nc2ccccc2)cn1	11	1
Cn1c(-c2ccc(Br)cc2)c[nH]c1=S	-4	-4
COC(=O)c1ccc(C(=O)OC)c(NC(=O)Oc2ccccc2)c1	0	2
Cc1ccc(NC(=O)Cn2c(O)c(N=NC(=O)c3ccccc3O)c3ccccc32)cc1	-6	-8
Cc1c(C(=O)N2CC(C)OC(C)C2)cc(-c2ccccc2)n1-c1ccccc1Cl (configuration not stated)	-1	8
COc1ccc(C2CCCN2Cn2nc(C3CC3)n(C3CC3)c2=S)cc1 (configuration not stated)	-2	-4
O=C(NN=Cc1ccccc1C(F)(F)F)c1cccs1	-5	-10
Cc1occc1COC(=O)C1(C)CCOCC1	11	1
CC(C)(C)OC(=O)N1CCN(CCCS(=O)(=O)c2ccccc2)C(C)(C)C1	-20	-19
CC(NC(=O)C(C)N1CCCN2CCCC2C1)c1ccc2ccccc2c1 (configuration not stated)	7&5	2&3
CC(C)OC(=O)COC(=O)c1cc(-c2ccc(Cl)cc2)nc2ccccc12	22	14
CC(C)CN1CC(C(=O)N2CCc3[nH]nc(C4CCC4)c3C2)CC1=O (configuration not stated)	-4	-6
CN(C(=O)c1ccccc1F)C1CCC2(CC1)OCC(C)(C)CO2	-5	-10
Cc1cc(NCCC(=O)NC2CCS(=O)(=O)C2)nc(-c2ccncc2)n1 (configuration not stated)	-2	-3
C=CC(C)(O)CN(CCC(C)C)Cc1ccc(OC)c(OC)c1 (configuration not stated)	-2	9
COc1ccc(Cn2c(=O)oc3ccc(Cl)cc32)cc1	28	21
Cc1ccc(Cc2nsc(N3CCCN(S(=O)(=O)/C=C/c4ccccc4)CC3)n2)cc1	9	17
Fc1cc(Br)cc2c1NCC2	0	-3
Cc1ccc(CN(Cc2ccc(C(C)(C)O)o2)C(C)C)o1	18	22
CCOC(=O)CC(=O)c1[nH]c(C)c(C(=O)OCC)c1C	3	-1
CCc1csc(CNC(=O)c2ccc(NCc3ccc(C)o3)nc2)n1	1	-4
COc1ccc(C2=N/C(=C/c3cc4ccccc4n3C(C)=O)C(=O)O2)cc1Br	1	-6
COc1cccc(CNC(=O)NC2CCSc3ccccc32)c1 (configuration not stated)	-1	-2
CC(C)C(C)N(Cc1cc(NC(=O)C2CCCC2)ccc1N(C)C)C(=O)Nc1cccc(F)c1 (configuration not stated)	1	-2
CC(NS(=O)(=O)c1ccc(F)cc1)C(=O)Nc1ccc(F)cc1 (configuration not stated)	5	1
Cc1nn(-c2cccc(C(F)(F)F)c2)c(C)c1CC(=O)N1CCCC(C)CC1 (configuration not stated)	3	2
CCN(c1ccccc1)S(=O)(=O)c1ccc(NC(=O)C2CCC2)cc1	1	3
CC(C)Cc1cnc2c(c1SCC(=O)Nc1ccccc1C(F)(F)F)c(=O)n(C)c(=O)n2C	0	2
COC1CCN(c2ncnc(NCCN3CCOCC3)c2N)CC1	25	19
CCC(O)CNC(c1nc(-c2ccc3c(c2)OCO3)no1)C(C)CC (configuration not stated)	5	1
O=C(Nc1ccccc1)c1ccc(Cl)c(S(=O)(=O)Nc2ccc(Cl)cn2)c1	11	9
O=C(Cc1cccs1)N1[C@@H](c2ccccc2)[C@@H](CO)C[C@]12CCCCN(CCO)C2=O	4	16
COc1ccc(-c2onc(C)c2C(=O)NCCCN2CCCCC2C)cc1 (configuration not stated)	-1	8
Cc1csc(CNC2CCN(Cc3ccccc3)C(C)C2)n1 (configuration not stated)	6	5
COCC(=O)N(Cc1ccc(OC)c(OCc2nc(CO)cs2)c1)Cc1ccco1	0	5
C=CCn1c(O)c(N=NC(=O)c2cc3ccccc3cc2O)c2ccccc21	3	-1
CCOC(=O)c1cc(-c2cccc(NC(=O)c3cccs3)c2)n(-c2ccccc2OC)n1	1	-2
CC1(C(=O)NCc2ccccc2Br)CCN1Cc1cc2ccccc2o1 (configuration not stated)	3	4
Cn1ccc2c(-c3ccc(C(=O)O)cn3)ccnc21	25	11
CC1CCc2c(sc3ncnc(SC(C)C(=O)O)c23)C1 (configuration not stated)	3	1
O=C(Nc1ccc(F)cc1)Nc1ncc(Cl)cc1Cl	7	6
O=S1(=O)CCN2N=C(SCc3ccc(F)cc3)SC2=N1	0	0
CC1CCc2nc(C(C#N)=Cc3cccs3)sc2C1 (configuration not stated)	1	-1
Cc1cc(NC(C)c2nc(-c3ccccc3)no2)ccc1Br (configuration not stated)	4	4
Cc1cc(C(=O)NCC2CCCN(Cc3ccc(C#CC(C)(C)O)s3)C2)no1 (configuration not stated)	0	-3
C=CCn1cnc2c(nnn2CC)c1=O	-2	38
CCOC(=O)CCC(=O)Nc1c(C)nc2ccc(C)cn2c1=O	-1	-2
Cc1cc(NC(=O)C2CCCCC2)n(Cc2ccccc2)n1	2	0
CCc1nc2c(OCC(=O)N(C)C)cccn2c1N(C)C(=O)c1ccccc1F	-8	0
COc1ccc(-c2nnc3n(C(C)C)c4c(=O)n(C)c(=O)n(C)c4n23)cc1	8	3
Cc1cc(N=C2CCCC2C(=O)C(=O)O)n(C)n1 (configuration not stated)	7	2
O=C(CSc1nnnn1C1CC1)c1cc2cc(Cl)ccc2o1	-3	4
CCCCN1C(=O)CCc2cc(NC(=O)C(C)(C)C)ccc21	11	6
NC(=O)C1CCCCN1 (configuration not stated)	32	17
OCc1c[nH]c(=S)n1C1CCCC1	22	13
Cc1nc(C)c(-c2cccc3c2OC(CN)C3)s1 (configuration not stated)	-1	-5
O=C(Nc1ccc2c(c1)OCO2)N1CCC(n2cc(C3CCCC3)nn2)CC1	-7	-11
CC1CN(c2ncnc3c2cnn3CCNC(=O)c2cccc(Cl)c2)CC(C)O1 (configuration not stated)	0	-2
CCN(CC)c1ccc(CN(C)C(=O)c2ccc3c(c2)C(=O)N(C)C3=O)cc1	-2	-4

Some of the entries above, reformatted:
Below each compound – NPYLR7 agonist	NPYLR7 agonist max-min
C=CCn1cnc2c(nnn2CC)c1=O
 : -2	38
CCOC(=O)CCC(=O)Nc1c(C)nc2ccc(C)cn2c1=O
 : -1	-2
Cc1cc(NC(=O)C2CCCCC2)n(Cc2ccccc2)n1
 : 2	0
CCc1nc2c(OCC(=O)N(C)C)cccn2c1N(C)C(=O)c1ccccc1F
 : -8	0
COc1ccc(-c2nnc3n(C(C)C)c4c(=O)n(C)c(=O)n(C)c4n23)cc1
 : 8	3
Cc1cc(N=C2CCCC2C(=O)C(=O)O)n(C)n1 (configuration not stated)
 : 7	2
O=C(CSc1nnnn1C1CC1)c1cc2cc(Cl)ccc2o1
 : -3	4
CCCCN1C(=O)CCc2cc(NC(=O)C(C)(C)C)ccc21
 : 11	6
NC(=O)C1CCCCN1 (configuration not stated)
 : 32	17
OCc1c[nH]c(=S)n1C1CCCC1
 : 22	13
Cc1nc(C)c(-c2cccc3c2OC(CN)C3)s1 (configuration not stated)
 : -1	-5
O=C(Nc1ccc2c(c1)OCO2)N1CCC(n2cc(C3CCCC3)nn2)CC1
 : -7	-11
CC1CN(c2ncnc3c2cnn3CCNC(=O)c2cccc(Cl)c2)CC(C)O1 (configuration not stated)
 : 0	-2
CCN(CC)c1ccc(CN(C)C(=O)c2ccc3c(c2)C(=O)N(C)C3=O)cc1
 : -2	-4

Other entries.
SMILES	NPYLR7 agonist	NPYLR7 agonist max-min
Cc1cc(C(=O)NC(C)C(=O)N2CCS(=O)(=O)CC2)sc1-c1ccc(F)cc1 (configuration not stated)	1	1
CCOC(=O)c1c(C)n(-c2ccccc2C)c2ccc(OC)cc12	-7	-15
Cc1nc2n(n1)C(=O)C(C(c1ccc(F)cc1)N1CCC(O)CC1)S2 (configuration not stated)	-2	-4
Cc1cc(C)n(CC(C)NCc2noc(-c3ccc4c(c3)OCO4)n2)n1 (configuration not stated)	-3	-8
CCCCc1ccc(C(=O)N(Cc2cccc(OS(=O)(=O)c3ccc(F)cc3)c2)C(C)CC)cc1 (configuration not stated)	-2	7
CC(C)NC(=O)Nc1ccc(N(C)C)c(CN(CC2CCCO2)C(=O)Cc2cccs2)c1 (configuration not stated)	2	4
CCN(Cc1nc(C)no1)C(=O)c1ccc(-n2nc(C)cc2C)cc1	6	4
Cn1cccc1C(=O)N1CCN(c2nccnc2NS(=O)(=O)c2ccc(OC(F)(F)F)cc2)CC1	1	10
Cc1c(C(C)NC(=O)c2ccc(Oc3ccccc3)o2)cnn1-c1ccccc1 (configuration not stated)	21	22
CCCNC(=O)c1ccc(Oc2ccc(F)cc2)cc1	-5	-6
O=c1oc2ccc3ccccc3c2cc1-c1nnc(Nc2ccc(F)cc2)s1	-4	-9
CCc1nc(C2CC(=O)Nc3n[nH]c(-c4cccs4)c32)c(C)[nH]1 (configuration not stated)	-1	-8
Cc1nn(C)c(C)c1OCC(=O)NCC(O)Cc1ccccc1 (configuration not stated)	4	1
CCOC(=O)c1cnc2c(-c3ccccc3)c(C)nn2c1N	-4	-5
CCc1cn[nH]c1C1CCN(c2noc(-c3ccccc3)n2)CC1	0	-5
CC(C)CCOC(C)C(=O)NC(C)c1ccc(S(=O)(=O)N(C)C)cc1 (configuration not stated)	14	11
CCc1nc2ccc(C(=O)Nc3ccc(OC)c(OC)c3)cn2c1N(CC)Cc1ccc(OC)c(OC)c1	13	6
Clc1ccc(Cn2ccnc2CNCC2CC2)cc1Cl	2	3
CC(c1ccccc1)N(Cc1cc(NC(=O)C2CCCC2)ccc1N(C)C)C(=O)c1cccc(F)c1 (configuration not stated)	5	16
Cc1cc(N(C)C)ccc1CN	13	8
N#Cc1ccc(S(=O)(=O)N2CCN(C(=O)c3ccc(-c4ccccc4)cc3)CC2)cc1	-1	13
Cc1ccc(S(=O)(=O)N(Cc2c(-c3ccccc3)noc2N2CCOCC2)C2CC2)cc1	6	12
COc1cn(CC(=O)NCc2ccc(F)cc2)c(CO)cc1=O	1	-2
Cc1nc(CCC(=O)N(C)Cc2ccccc2C(F)(F)F)n[nH]1	4	4
Cc1ccc(S(=O)(=O)NCCOc2ccc(-c3cccs3)nn2)cc1	-2	-2
CCOC(=O)c1nn(-c2ccccc2)c(=O)c2c(NC(=O)CCc3ccccc3)scc12	-9	-7
COc1cc(CN2CCCC(CCC(=O)N3CCOCC3)C2)ccc1F (configuration not stated)	-1	-2
Cc1cc(OCC(=O)NNC(=O)c2cccs2)cc(C)c1Cl	-3	-5
O=C(NC1CCN(c2ccccc2C(=O)NCc2cccc(C(F)(F)F)c2)CC1)c1ccc(Cl)cc1Cl	33	39
CC(=O)Nc1ccc(S(=O)(=O)Nc2ccccc2N2CCCC2=O)cc1	0	-2
O=C(c1ccc(-c2ccccc2)c(F)c1)C1CCCN(Cc2ccncc2)C1 (configuration not stated)	-2	-17
O=S(=O)(Nc1nc2ccccc2nc1OCC(F)(F)F)c1cccs1	3	3
O=C(c1ccc(Cl)s1)N1CCCC(Nc2ccc3c(c2)OCO3)C1 (configuration not stated)	7&2	3&0
Cc1ccccc1OCC(O)CN(Cc1cccc(Cl)c1)CC1CC(c2ccccc2C)=NO1 (configuration not stated)	-4	-1
Cc1nccn1CCC1CCCCN1C(=O)c1cccc(Cn2cccn2)c1 (configuration not stated)	-5	-5
CC(C)CCN1C(=O)N(C(C)C)C(=O)C12CCN(Cc1ccc(CN3CCCCC3)s1)CC2	13	2
Cc1cc(SC2CCCCC2)ccc1N	2	0
CC(C)(C)OC(=O)N1CCN(S(=O)(=O)c2c[nH]c3ncccc23)C2(CCCCC2)C1	4	-9
c1c(CN2CCC(N3CCSCC3)CC2)nn2c1CNCC2	14	11
O=C(c1cccc(Nc2c(Oc3cccc(Cl)c3)cnn(-c3ccc(F)cc3)c2=O)c1)N1CCCC1	8	12
CCc1nc(N(CCC(=O)Nc2ccccc2F)CCc2ccccc2)c2ccc(Cl)cc2n1	9	13
C=CCN(Cc1ccccc1)C(=O)C(=O)N1CCOCC1	-3	-5
O=C(CSC1=Nc2ccccc2CS1)Nc1cccc2nsnc12	5	1
CC(C)C(C(=O)NCc1ccccc1COc1ccccc1)N1CCCS1(=O)=O (configuration not stated)	1	12
CC(C)(C)OC(=O)N1Cc2[nH]c3ccccc3c2C[C@@H]1C(=O)Nc1ccc2[nH]ncc2c1	0	3
CC(C)(CCl)C(=O)Nc1ccc(C2SCC(=O)N2c2cc(F)ccc2F)cc1 (configuration not stated)	3	14
Cc1ccc2c(c1)CN(C(=O)c1csc(-c3cccs3)n1)CC(C)O2 (configuration not stated)	-1	-8
Cc1cccc(C(C2Sc3nc(C)nn3C2=O)N2CCCC(C)C2)c1 (configuration not stated)	3	2
COCCCC1CCCN(C(=O)c2cccc(CC3CCNCC3)c2)C1 (configuration not stated)	7	-3
CN(C)CC1CCCCC1C1(O)c2ccccc2CSc2ccccc21 (configuration not stated)	5	1
CCOc1c(Cl)cc(C(=O)N(C)c2nccs2)cc1OC	4	5
Cc1ccn2c(NC(=O)CCC3CCCC3)c(-c3cccc(F)c3)nc2c1	-5	2
CN(C)C(C)(C)CNC(=O)c1c(Br)c2ccccc2n1C	-25	-27
CCN(CCO)c1nc(NCc2ccccc2)c2cnn(C)c2n1	-1	-3
C=CCSC1=C(C#N)C2(CCCCC2)C(C#N)C(=O)N1 (configuration not stated)	-4	-5
CCOC(=O)N1C/C(=C/c2cccc(O)c2)C(=O)/C(=C/c2cccc(O)c2)C1	10	5
Cc1ccc(NC(=O)C2(c3cccc(C)c3)CC2)nc1	2	0
CC1C(c2ccc(Cl)cc2)=[N+]([O-])C(C)(c2ccccc2)N1O (configuration not stated)	2	-1
CCOC(=O)C1=C(C)NC2=C(C(=O)CC(c3ccc(Cl)cc3)C2)C1c1ccc(C)cc1 (configuration not stated)	-3	-5
